Assay outcomes from PubChem.
FGF22 binding: shifts melting point of recombinant human FGF22; recombinant FGF22 thermal shift, SYPRO orange fluorescence; percent of sucrose octasulfate shift, DMSO zero; 340,000 compounds, 1.5% hits; Q9HCT0; calls only at 9.99 µM;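 active means melting point raised past a set limit in the mean and every replicate; three in four hits are not shown here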
Target sequence (Q9HCT0 whole entry, looked up): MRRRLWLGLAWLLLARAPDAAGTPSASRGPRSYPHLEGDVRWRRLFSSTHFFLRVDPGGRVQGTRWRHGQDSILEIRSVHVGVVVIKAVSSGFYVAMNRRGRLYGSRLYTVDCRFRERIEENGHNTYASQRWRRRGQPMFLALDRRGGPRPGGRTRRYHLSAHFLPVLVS
Calls only; i = inactive; + = active, no number. These rows are one share of the data; rates above refer to the full screens.

mol	FGF22 binding
C[C@@H]1ON(C)[C@H]2C[C@H]3c4[nH]c5c(-c6ccc(Cl)cc6)cccc5c4CCN3C(=O)[C@@H]12	i
C[C@H](CO)N1C[C@H](C)[C@@H](CN(C)Cc2cncnc2)Oc2cc(-c3ccncc3)ccc2S1(=O)=O	i
C[C@@H]1CN([C@@H](C)CO)C(=O)Cc2cc(NC(=O)CCN3CCOCC3)ccc2O[C@@H]1CN(C)CC1CCCCC1	i
OC[C@H]1Nc2ccc(C#Cc3ccc(F)cc3)cc2[C@H]2[C@@H]1CCN2Cc1nccs1	i
C[C@@H]1CN([C@H](C)CO)S(=O)(=O)c2ccc(-c3ccc(C(=O)N(C)C)cc3)cc2O[C@@H]1CN(C)Cc1ccccc1C(=O)O	i
C[C@@H](O)C#Cc1ccc([C@@H]2[C@@H](CO)N3CCCCN(C(=O)c4ccncc4)C[C@H]23)cc1	i
O=C(NCC1CC1)[C@@H]1[C@@H](CO)[C@@H]2Cn3c(ccc(C4=CCCC4)c3=O)[C@H]1N2CCC(F)(F)F	i
C[C@@H]1CN([C@H](C)CO)C(=O)c2cc(-c3cncnc3)cnc2O[C@@H]1CN(C)C(=O)Cc1cccnc1	i
C[C@@H]1CN([C@@H](C)CO)C(=O)c2cccc(NC(=O)c3nc4ccccc4s3)c2O[C@H]1CN(C)S(=O)(=O)c1ccc(F)cc1	i
C[C@H]1CN([C@@H](C)CO)C(=O)c2cccc(NC(=O)C3CCOCC3)c2O[C@H]1CN(C)Cc1ccccc1	i
C[C@@H]1CCCCO[C@@H](CN(C)C(=O)c2ccccc2)[C@H](C)CN([C@@H](C)CO)C(=O)c2cc(NC(=O)c3ccccc3)ccc2O1	i
C[C@H](CO)N1C[C@H](C)[C@H](CN(C)S(C)(=O)=O)Oc2ccc(NS(=O)(=O)c3cccs3)cc2C1=O	i
C[C@H](CO)N1C[C@H](C)[C@H](CN(C)Cc2ccc(C(=O)Nc3ccccc3N)cc2)Oc2ccc(NC(=O)CCN3CCOCC3)cc2CC1=O	i
Cc1ccc(S(=O)(=O)Nc2ccc3c(c2)C(=O)N([C@H](C)CO)C[C@@H](C)[C@H](CN(C)C(=O)c2ccncc2)OCCCC[C@@H](C)O3)cc1	i
CO[C@@H]1CC[C@@H]2CCOc3c(C#N)cccc3C(=O)N(C)C[C@@H](c3ccccc3)CC(=O)N(C)C[C@H]1O2	i
CN(C)C(=O)c1ccc(-c2ccccc2[C@H]2[C@H](C#N)N(C(=O)C3CCC3)[C@H]2CO)cc1	i
C[C@H]1CCCCO[C@H](CN(C)S(=O)(=O)c2ccc(F)cc2)[C@@H](C)CN([C@@H](C)CO)C(=O)c2cc(NC(=O)Nc3cccc4ccccc34)ccc2O1	i
N#Cc1ccc(-c2ccc3c(c2)[C@@H]2[C@@H](CCN2C(=O)c2ccc4c(c2)OCO4)[C@H](CO)N3)cc1	i
C[C@H]1CN([C@@H](C)CO)C(=O)c2cc(C#Cc3ccccc3)cnc2O[C@H]1CN(C)C(=O)c1ccccn1	i
CO[C@@H]1CN(C)C(=O)c2cc(NC(=O)c3ccc(-c4ccccc4)cc3)ccc2OC[C@@H](C)NC[C@@H]1C	i
CO[C@H]1CN(C)C(=O)c2ccc(NS(C)(=O)=O)cc2OC[C@H](C)NC[C@H]1C	i
CCCN(C)C[C@H]1OCCCC[C@@H](C)Oc2ccc(NC(=O)Nc3ccccc3)cc2C(=O)N([C@@H](C)CO)C[C@H]1C	i
O=C(CCN1CCCCC1)N[C@H]1CC[C@@H](CCn2cc(-c3ccc(F)cc3)nn2)O[C@H]1CO	i
C[C@H](NC(=O)[C@H]1[C@H](CO)[C@H]2Cn3c(cccc3=O)[C@H]2N1Cc1ccncc1)c1ccccc1	i
CN1C(=O)c2cc(NC(=O)C3CCOCC3)ccc2OC[C@H]2O[C@H](CC(=O)O)CC[C@H]21	i
Cc1ccc(S(=O)(=O)N(C)C[C@H]2OCc3ccccc3-c3c(n(C)c4ccccc34)C(=O)N([C@H](C)CO)C[C@H]2C)cc1	i
Cc1noc(C)c1NC(=O)Nc1ccc2c(c1)CC(=O)N([C@H](C)CO)C[C@H](C)[C@@H](CN(C)Cc1ccc(Cl)c(Cl)c1)O2	i
CO[C@@H]1CN(C)C(=O)c2ccc(NC(=O)C3CC3)cc2OC[C@@H](C)N(Cc2ccccc2C(=O)O)C[C@H]1C	i
COc1ccc(S(=O)(=O)Nc2ccc3c(c2)CC(=O)N([C@H](C)CO)C[C@@H](C)[C@@H](CN(C)Cc2ccc(C(F)(F)F)cc2)O3)cc1	i
CO[C@H]1CN(C)C(=O)c2cc(NC(=O)NC3CCCCC3)ccc2OC[C@H](C)N(C(C)=O)C[C@H]1C	i
CS(=O)(=O)N1[C@@H](C#N)[C@@H](c2ccccc2)[C@@H]1CO	i
C/C=C/c1ccc([C@@H]2[C@@H](CO)N3CCCCN(C(=O)Nc4ccc(OC)cc4)C[C@H]23)cc1	i
CN(C)C(=O)C[C@H]1C[C@H]2c3cc(NC(=O)C4CCOCC4)ccc3O[C@H]2[C@H](CO)O1	i
COc1ccc(Cn2cc(CN3[C@@H](c4ccccc4)COc4cc(Br)ccc4S3(=O)=O)nn2)cc1	i
CC(C)NC(=O)NCC[C@H]1CC[C@@H](NS(=O)(=O)c2ccc(-c3ccccc3)cc2)[C@@H](CO)O1	i
C[C@@H]1CN([C@@H](C)CO)C(=O)c2c(c3ccccc3n2C)-c2ccccc2CO[C@H]1CN(C)Cc1ccc(O)cc1	i
COc1ccccc1-c1ccc([C@@H]2[C@H](CO)N(CC3CC3)C23CN(S(C)(=O)=O)C3)cc1	i
C[C@H](CO)N1C[C@H](C)[C@H](CN(C)Cc2ccc(C(=O)Nc3ccccc3N)cc2)OCc2cnnn2CCCC1=O	i
N#C[C@@H]1N[C@@H](CO)[C@@H]1c1ccc(-c2cccc(F)c2)cc1	i
C[C@@H]1CN([C@@H](C)CO)C(=O)Cc2cc(NS(=O)(=O)c3ccccc3)ccc2O[C@@H]1CN(C)Cc1ccc2c(c1)OCO2	i
CC(C)c1cn(CC[C@@H]2CC[C@H](NS(=O)(=O)c3ccccc3)[C@@H](CO)O2)nn1	i
C[C@@H]1CN([C@@H](C)CO)C(=O)c2cc(-c3cccnc3)cnc2O[C@@H]1CN(C)C(=O)c1cccc(F)c1	i
C[C@@H]1CN([C@H](C)CO)C(=O)c2cc(NC(=O)Nc3ccc4c(c3)OCO4)ccc2O[C@@H](C)CCCCO[C@H]1CN(C)S(=O)(=O)c1cccs1	i
Cc1ccc(S(=O)(=O)N(C)C[C@H]2Oc3ccc(NS(=O)(=O)c4cccs4)cc3C(=O)N([C@H](C)CO)C[C@H]2C)cc1	i
C[C@@H]1CN([C@@H](C)CO)S(=O)(=O)c2ccc(C#CCN(C)C)cc2O[C@H]1CN(C)Cc1ccc2c(c1)OCO2	i
C[C@H](CO)N1C[C@H](C)[C@H](CN(C)Cc2cccnc2)Oc2ncc(C3=CCCCC3)cc2C1=O	i
O=C(C[C@H]1C[C@@H]2c3cc(NC(=O)c4ccc5c(c4)OCO5)ccc3O[C@@H]2[C@@H](CO)O1)NCc1ccccn1	i
C[C@H]1CCCCO[C@@H](CN(C)C(=O)Nc2ccc(C(F)(F)F)cc2)[C@@H](C)CN([C@@H](C)CO)C(=O)c2cc(NS(=O)(=O)c3ccccc3)ccc2O1	i
O=C(NCC[C@@H]1CC[C@H](NC(=O)C2CCCCC2)[C@H](CO)O1)Nc1ccc(Cl)cc1	i
Cc1ccc(S(=O)(=O)N(C)C[C@@H]2OCc3cn(nn3)CCCC(=O)N([C@@H](C)CO)C[C@@H]2C)cc1	i
CC(=O)N[C@@H]1CC[C@H](CC(=O)NCc2ccc(Cl)cc2)O[C@@H]1CO	i
C[C@H](CO)N1C[C@H](C)[C@H](CN(C)CC2CC2)Oc2ccc(NC(=O)CCCCCC(=O)Nc3ccccc3N)cc2C1=O	i
C[C@@H]1CCCCO[C@@H](CN(C)S(=O)(=O)c2cn(C)cn2)[C@@H](C)CN([C@@H](C)CO)C(=O)c2cc(NC(=O)Cc3ccccc3)ccc2O1	i
C/C=C/c1ccc2c(c1)O[C@@H](CN(C)C(=O)Nc1ccc(C(F)(F)F)cc1)[C@@H](C)CN([C@@H](C)CO)S2(=O)=O	+
C[C@@H]1CN([C@H](C)CO)C(=O)Cc2cc(NC(=O)Cc3cn(C)c4ccccc34)ccc2O[C@@H]1CN(C)C(=O)Nc1ccc2c(c1)OCO2	i
CCCNC(=O)C[C@H]1CC[C@@H]2[C@@H](COc3ccc(NC(=O)C4CCOCC4)cc3C(=O)N2C)O1	i
COc1ccc(-c2cn(CC[C@H]3CC[C@@H](NC(=O)NC(C)C)[C@@H](CO)O3)nn2)cc1	i
C[C@H]1CN([C@@H](C)CO)S(=O)(=O)c2ccc(-c3ccccc3)cc2O[C@H]1CN(C)Cc1ccccn1	i
C[C@@H]1CN([C@H](C)CO)C(=O)c2cc(NS(=O)(=O)c3cn(C)cn3)ccc2O[C@@H]1CN(C)C(=O)Nc1ccc(C(F)(F)F)cc1	i
COc1ccc(S(=O)(=O)N2C[C@@H](O)COC[C@@H]3O[C@@H](CC(=O)NCc4ccc(Cl)c(Cl)c4)CC[C@H]32)cc1	i

Printed as active in FGF22 binding (from the list above):
mol	FGF22 binding
C/C=C/c1ccc2c(c1)O[C@@H](CN(C)C(=O)Nc1ccc(C(F)(F)F)cc1)[C@@H](C)CN([C@@H](C)CO)S2(=O)=O	+

The listing picks up, repeating the 2 entries before the break.
mol	FGF22 binding
C[C@@H]1CN([C@H](C)CO)C(=O)c2cc(NS(=O)(=O)c3cn(C)cn3)ccc2O[C@@H]1CN(C)C(=O)Nc1ccc(C(F)(F)F)cc1	i
COc1ccc(S(=O)(=O)N2C[C@@H](O)COC[C@@H]3O[C@@H](CC(=O)NCc4ccc(Cl)c(Cl)c4)CC[C@H]32)cc1	i
C[C@H]1CN([C@@H](C)CO)C(=O)c2cc(NC(=O)Nc3ccc(F)cc3)ccc2O[C@H]1CN(C)C(=O)NC1CCCCC1	i
C[C@H]1CN([C@@H](C)CO)C(=O)c2cc(NS(=O)(=O)c3cn(C)cn3)ccc2O[C@H]1CN(C)C(=O)Nc1cccc2ccccc12	i
Cc1noc(C)c1S(=O)(=O)N(C)C[C@H]1OCCCC[C@@H](C)Oc2ccc(NC(=O)CCC(F)(F)F)cc2C(=O)N([C@@H](C)CO)C[C@@H]1C	i
COc1ccc(S(=O)(=O)Nc2ccc3c(c2)CC(=O)N([C@@H](C)CO)C[C@H](C)[C@H](CN(C)Cc2ccccc2)O3)cc1	i
O=C(NC1CCC1)[C@H]1[C@H](CO)[C@H]2Cn3c(ccc(-c4ccncc4)c3=O)[C@H]2N1CC1CC1	i
CC(C)NC(=O)Nc1ccc2c(c1)C(=O)N([C@@H](C)CO)C[C@H](C)[C@@H](CN(C)S(=O)(=O)c1cccs1)OCCCC[C@H](C)O2	i
Cc1ccc(S(=O)(=O)Nc2ccc3c(c2)C(=O)N([C@H](C)CO)C[C@H](C)[C@H](CN(C)S(C)(=O)=O)O3)cc1	i
Cc1ccc(S(=O)(=O)Nc2ccc3c(c2)C(=O)N([C@H](C)CO)C[C@@H](C)[C@@H](CN(C)S(=O)(=O)c2cn(C)cn2)OCCCC[C@H](C)O3)cc1	i
CN1[C@H](C(=O)N2CCc3ccccc3C2)[C@@H](CO)[C@@H]2Cn3c(ccc(-c4ccncc4)c3=O)[C@@H]21	i
Cc1ccccc1S(=O)(=O)NCC[C@@H]1CC[C@@H](NC(=O)C2CCCCC2)[C@@H](CO)O1	i
C[C@@H]1CCCCO[C@@H](CN(C)C(=O)c2ccncc2)[C@@H](C)CN([C@@H](C)CO)C(=O)c2cc(NC(=O)CCC(F)(F)F)ccc2O1	i
O=C(NCc1ccccc1)[C@H]1CCCN1C(=O)[C@H]1CCCN1C(=O)c1ccccc1C(F)(F)F	i
CC(=O)Nc1ccc2c(c1)C(=O)N(C)[C@@H]1CC[C@H](CC(=O)NCc3ccc(Cl)cc3)O[C@@H]1CO2	i
COCC#Cc1ccc2c(c1)O[C@@H](CN(C)C(=O)C1CCOCC1)[C@H](C)CN([C@H](C)CO)S2(=O)=O	i
CO[C@@H]1CN(C)C(=O)c2cc(NC(=O)C3CC3)ccc2OC[C@H](C)N(Cc2cccnc2)C[C@H]1C	i
Cc1ccc(S(=O)(=O)N(C)C[C@@H]2OCc3ccccc3-c3ccccc3C(=O)N([C@@H](C)CO)C[C@H]2C)cc1	i
CC(=O)N1CCCCN2[C@H](C1)[C@@H](c1ccc(Br)cc1)[C@@H]2CO	i
C[C@H](CO)N1C[C@H](C)[C@H](CN(C)S(=O)(=O)c2ccc(Cl)cc2)Oc2ccc(NC(=O)Nc3ccc4c(c3)OCO4)cc2CC1=O	i
COc1ccc(S(=O)(=O)N2CCCCN3[C@H](C2)[C@H](c2ccc(C#CCC(C)C)cc2)[C@@H]3CO)cc1	i
C[C@@H]1CN([C@@H](C)CO)S(=O)(=O)c2ccc(-c3ccncc3)cc2O[C@@H]1CN(C)C(=O)c1cccc(F)c1	i
O=C(CC(F)(F)F)N1C[C@H]2[C@@H](c3ccccc31)[C@H](CO)N2C(=O)c1ccncc1	i
CO[C@H](CN(C)S(=O)(=O)c1cn(C)cn1)[C@H](C)CN(C(=O)Nc1ccc(C(F)(F)F)cc1)[C@@H](C)CO	i

As a short view, 3 of the compounds above:
mol	FGF22 binding
C[C@@H]1CN([C@@H](C)CO)S(=O)(=O)c2ccc(-c3ccncc3)cc2O[C@@H]1CN(C)C(=O)c1cccc(F)c1	i
O=C(CC(F)(F)F)N1C[C@H]2[C@@H](c3ccccc31)[C@H](CO)N2C(=O)c1ccncc1	i
CO[C@H](CN(C)S(=O)(=O)c1cn(C)cn1)[C@H](C)CN(C(=O)Nc1ccc(C(F)(F)F)cc1)[C@@H](C)CO	i
